High-throughput results as filed in PubChem BioAssay.
YopH inh: blocks Yersinia enterocolitica YopH tyrosine phosphatase; 0.16% of 140,000 active; inhibition, %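 (about 10 µM by stock and volumes)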; fluorescence Ex485/Em525;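 active = inhibition of 50% or more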;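 also: controls were vehicle for no effect and minimum signal wells for full effect; inactives centre near -20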
Mtb betalactam: beta-lactam sensitization of Mtb H37Rv; AID 434955; inhibition, % at 25 µM; 0.27% of 330,000 active; M. tuberculosis H37Rv growth with meropenem, percent inhibition; hits of this screen are not shown here;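 active = about 74% or more and at least 40 points above the plate without the antibiotic, then above 30% in a dose series; inconclusive = first-round hits that could not be retested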;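 also: growth measured after seven days incubation then overnight dye step; 0% = bacteria only wells and 100% = bacteria with antibiotic; twin plates without the antibiotic show which effects depend on it; some results filed as inactive read as strong as hits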
Mtb H37Rv: M. tuberculosis H37Rv growth inhibitors, H37Rv strain (AID 1626); 0.95% of 220,000 active; M. tuberculosis H37Rv growth inhibition; higher % means a stronger effect; inhibition, % at 10 µM, or IC50 in µM where a hit was titrated;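 active = confirmed in a dose series; inconclusive = inhibition above 80% but not taken into the dose series; inactive = below 80% or under 30% at every dose of the series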;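 also: bacteria incubated seven days before Alamar blue readout; 0% = bacteria only wells and 100% = bacteria with antibiotic wells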
Arbovirus anti: blocks arbovirus infection; arbovirus infection cell-based antiviral screen; inhibition, % at 10 µM; 0.37% of 200,000 active;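 active = inhibition from about 30%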;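 also: bluetongue infection of BSR cells; cell survival read as ATP light after 72 h; 0% = infected wells without compound and 100% = uninfected wells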
RecA splice inh: blocks M. tuberculosis RecA intein splicing | P9WHJ3 | cell-free RecA intein splicing, fluorescence | inhibition, %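 (about 9 µM by stock and volumes)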 | 0.75% of 290,000 active | AID 2221; in the data active = inhibition above about 30%; inconclusive = no clear call, values can overlap the other calls;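 also: 0% = vehicle wells and 100% = reference inhibitor control wells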
Target sequence (P9WHJ3 whole entry, looked up, canonical isoform): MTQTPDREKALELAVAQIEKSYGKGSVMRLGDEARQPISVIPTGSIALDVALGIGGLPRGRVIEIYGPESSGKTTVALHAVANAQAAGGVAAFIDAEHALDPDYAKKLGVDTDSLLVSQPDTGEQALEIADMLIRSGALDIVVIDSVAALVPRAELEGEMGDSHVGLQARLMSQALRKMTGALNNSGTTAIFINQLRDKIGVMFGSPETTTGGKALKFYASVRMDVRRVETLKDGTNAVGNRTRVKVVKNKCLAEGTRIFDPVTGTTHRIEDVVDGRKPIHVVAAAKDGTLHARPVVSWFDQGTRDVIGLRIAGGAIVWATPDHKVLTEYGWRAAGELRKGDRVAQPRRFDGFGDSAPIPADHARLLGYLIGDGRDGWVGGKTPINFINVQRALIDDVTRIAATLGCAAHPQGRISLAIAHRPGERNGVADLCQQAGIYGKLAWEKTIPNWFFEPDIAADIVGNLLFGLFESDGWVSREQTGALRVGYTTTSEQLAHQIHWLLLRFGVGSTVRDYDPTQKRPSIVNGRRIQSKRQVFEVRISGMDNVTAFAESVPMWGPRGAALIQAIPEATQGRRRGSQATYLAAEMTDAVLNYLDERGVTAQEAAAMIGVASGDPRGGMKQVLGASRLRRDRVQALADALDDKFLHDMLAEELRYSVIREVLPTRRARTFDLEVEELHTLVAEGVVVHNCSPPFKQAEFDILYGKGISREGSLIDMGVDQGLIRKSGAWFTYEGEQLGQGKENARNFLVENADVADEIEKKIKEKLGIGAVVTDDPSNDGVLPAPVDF
Arbovirus anti repeat: also measured in Arbovirus anti; calls as there; inhibition, %; measured here: 10K subset replicate screen; many hits read low in the repeat;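 first of two repeat runs on a subset; 0% = infected and 100% = uninfected wells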
Numbers without * were called inactive; ? = inconclusive; / = not tested or not shown. This is a subset; rates above refer to the full screens.

SMILES	YopH inh	Mtb betalactam	Mtb H37Rv	Arbovirus anti	RecA splice inh	others
O=C(CSc1nc2ccccc2c(=O)n1-c1ccc(F)cc1)Nc1ccc2c(c1)CCC2	-13	-6	2%	0	2.8
COCCN1C(=O)N(c2cccc(OC)c2)C(=O)C1CC(=O)Nc1cccc(F)c1 (stereo not given)	/	2	/	/	-2.7
Cc1ccc(NC(=O)CC2Oc3ccc(C)cc3NC2=O)c(C)c1 (stereo not given)	/	-3	/	/	1.1
CCCn1c(=S)[nH]c2sc3c(c2c1=O)CCCC3	/	2	/	/	-1.2
CC1Sc2ccc(C(=O)O)cc2NC1=O (stereo not given)	-33	4	-5%	5	-0.8
CCCOC(=O)c1cccc(NC(=O)COc2ccc([N+](=O)[O-])cc2)c1	-38	80	74%	6	-1.3
Cc1ccc(C(=O)N/N=C2\CC3CC=CC23)c(C)c1 (stereo not given)	/	-5	1%	-2	-3.4
CCS(=O)(=O)N1CCN=C1SC(C)c1ccccc1 (stereo not given)	/	-1	/	/	-1.7
Cc1ccc2nc(C3CCN(C(=O)c4ccco4)CC3)[nH]c2c1	-41	-1	-2%	0	2.3
Cc1ccc(S(=O)(=O)CNC(=S)c2cccc(Cl)c2)cc1	-22	3	46%	11	2.8
O=C(O)CC(NC(=O)c1cccc(F)c1)c1ccc(OC2CCCC2)cc1 (stereo not given)	/	-6	/	/	-6.6
Cc1nn(Cc2ccc(Cl)c(Cl)c2)c(C)c1NC(=O)c1cc(-c2ccc3c(c2)OCO3)on1	-24	-4	3%	-35	1.0
Cc1cccc(N2CCN(Cc3c(C)n(C)n(-c4ccccc4)c3=O)CC2)c1C	16	-2	1%	1	-1.4
O=C(Oc1ccc(/C=N/Nc2ccccc2)cc1)c1ccccc1	-34	3	80%	-38	6.8
CC(=O)Nn1cc2c(c1-c1ccccc1)c(=O)n(C)c(=O)n2C	-14	1	1%	2	0.7	Arbovirus anti repeat=0
CC(=O)c1ccc(N2CCN(C(=O)/C=C/c3ccc(S(=O)(=O)NCc4ccco4)cc3)CC2)cc1	/	1	1%	11	2.6
Cc1ccc(/C=C/C(=O)OCC(=O)NC(C)C)o1	/	0	1%	3	-1.8
COC(=O)c1ccccc1NC(=O)C1CCN(c2ncnc3c2nc2n3CCCCC2)CC1	/	33	/	/	-1.7
CSC(=Nc1ccccc1)C1=C(O)COC1=O	-31	21	-4%	1	1.5
C=CCn1c(COc2ccccc2)nc2ccccc21	/	-4	/	/	5.2
O=C1CCCc2c1nc(-c1ccc([N+](=O)[O-])cc1)n2O	/	-4	-1%	/	/
Cc1nn(C)c(C)c1/C=C(\C#N)C(N)=O	-24	-6	2%	3	1.2
N=c1c2cn[nH]c2nc(SCC(=O)c2ccc(Br)cc2)n1-c1ccc(Br)cc1	/	1	-6%	-2	/
COc1ccc(OCc2nnc(SCC(=O)c3ccccc3)o2)cc1	/	5	-6%	-14	1.8
CC(C)(C)NC(=O)c1cccc(NC(=O)Cc2ccc(Br)cc2)c1	-6	4	6%	17	3.3
Following part.
SMILES	YopH inh	Mtb betalactam	Mtb H37Rv	Arbovirus anti	RecA splice inh	others
COc1cc2c(cc1OC)-c1cc(OCc3ccccc3Cl)nc(=O)n1CC2	2	?	0%	5	-1.1
Clc1ccccc1-c1nnc2sc(-c3ccccn3)nn12	-20	/	6%	-10	2.1
Cc1c(C(=O)NNS(=O)(=O)c2ccccc2Cl)sc(=S)n1C	-12	1	0%	-17	-8.9
Cn1c(=O)n(C)c2cc(S(=O)(=O)NCCO)ccc21	9	-6	-5%	-2	-2.1
Cc1cc2c(Nc3ccccc3)ncnc2s1	/	-3	4%	0	1.5
CCn1ncc(Br)c1C(=O)Nc1ccc(C(C)C)cc1	/	8	/	/	6.3
Cc1ccccc1-n1cnc2c(sc3nc(N4CCOCC4)c4c(c32)CCCC4)c1=O	/	81	24%	/	4.3
CCC1CCCCN1c1nc(-c2ccncc2)nc2ccccc12 (stereo not given)	-8	/	13%	-16	18
COc1ccc(NC(=O)CSCc2ccc(C#N)cc2)c(OC)c1	/	-10	/	/	-0.2
CCOC(=O)C(CC(=O)O)NCc1ccco1 (stereo not given)	/	-5	-2%	/	1.1
CCCn1c(=S)[nH]c2cc(C(=O)N3CCCC(C(=O)OCC)C3)ccc2c1=O (stereo not given)	-26	-12	-6%	12	1.7
Cn1nc(C(=O)NC2CCCCC2)c2c1-c1ccccc1S(=O)(=O)C2	/	2	/	/	-0.8
Cc1cc2c(cc1C)N(C(=O)CSC1=NCCS1)C(C)(C)c1ssc(=S)c1-2	0	?	-6%	-4	13
COc1cccc2cc(C(=O)N3C(C)CCCC3C)c(=O)oc12 (stereo not given)	33	-4	-6%	-7	1.4
Cc1cc(C2=NNC(=Nc3ccccc3)SC2)c(C)n1C	/	2	0%	9	3.5
CC(=O)N(c1ccc(Cl)cc1)c1cn(C(C)=O)c2ccccc12	/	-1	12%	3	-0.1
O=C(NC(=S)N1CCN(c2ccccc2)CC1)c1ccc(S(=O)(=O)N2CCOCC2)cc1	/	2	22%	/	-1.6
C=C(C)c1cccc(C(C)(C)NC(=O)N2CCCCC2CC)c1 (stereo not given)	-15	1	1%	-7	2.7
O=C(NC(C(=O)N/N=C/c1ccccc1)c1n[nH]c(=O)c2ccccc12)c1ccccc1 (stereo not given)	-30	-11	/	-3	5.4
CCCn1cnc2scc(-c3ccc(C)cc3)c2c1=O	/	5	-3%	-11	/
O=C(CCSc1ccccc1)N1CCN(c2ccccc2)CC1	/	-6	0%	-8	-0.6
O=C(O)c1cccc(NC(=S)NC(=O)c2cccc(OCc3ccccc3)c2)c1	/	2	/	/	-1.3
COC(=O)c1sc(-c2ccc(Cl)cc2)cc1N	/	23	-9%	/	2.7
CC(=O)Nc1ccc(S(=O)(=O)NCC2CCC(C(=O)NCCc3ccccc3)CC2)cc1 (stereo not given)	/	-5	/	/	-2.7
COc1ccccc1CNCC(=O)NCc1ccc(C)cc1	/	2	-11%	-5	0.2
Further records.
SMILES	YopH inh	Mtb betalactam	Mtb H37Rv	Arbovirus anti	RecA splice inh	others
O=C(NC1CCN(C(=O)NCc2ccccc2)CC1)c1ccco1	2	?	-4%	6	-3.5
CC(C)(C)c1ccc(S(=O)(=O)N2CC(=O)Nc3ccccc32)cc1	-7	-8	0%	-8	/
COc1cccc(-c2nnn(CC(=O)Nc3ccc(C)cc3C)n2)c1OC	-61	12	-1%	-6	14
Nc1c(C(=O)O)cnc2c(-c3ccc(Cl)cc3)cnn12	/	67	?	4	3.4
Cc1ccc(N2CC(C(=O)N3CCC(c4nc5ccccc5[nH]4)CC3)CC2=O)cc1C (stereo not given)	/	0	/	/	-0.6
COc1ccc(NC(=O)[C@@H]2[C@@H]3C(=O)N(C4CCCCC4)C(=O)[C@@H]3C3c4ccccc4C=CN32)cc1 (stereo not given in full)	13	2	3%	-15	6.4
COC(=O)C1=C(CSc2nc3c(cc2C#N)CN(C)CC3)OC(N)=C(C#N)C1c1ccc(F)cc1 (stereo not given)	-26	0	-9%	1	-14
COc1ccc2[nH]c(=O)c(CN(CCc3cccc(C)c3)C(C)=O)cc2c1	-9	9	1%	10	-1.4
O=C(CN1C(=O)c2ccccc2C1=O)N1CCOCC1	-30	6	-2%	11	3.0
COc1ccc(CN2CCN(CCCCOc3ccc(Cl)cc3)CC2)c(OC)c1OC	/	5	5%	0	6.8
CCc1c(C)c2ccc(O)c(CN3CCCC3)c2oc1=O	/	6	/	/	-51
Cc1cc2n(n1)C(c1c[nH]c3ccccc13)Nc1ccccc1-2 (stereo not given)	-39	88	16%	-28	13
COc1ccc2nc(/C=N/NC(=O)CCNC(=O)OC(C)(C)C)ccc2c1	/	-6	2%	/	-2.1
CCCCCCNC(=O)N[C@@H](Cc1ccc(O)cc1)C(=O)NCCC[C@H]1CN2C(=NC[C@H]2C)N1CC1CCC1	/	-7	-7%	/	-0.1
CCNS(=O)(=O)c1cc(OC)c(Cl)cc1OC	-27	-4	-2%	-4	-2.2
O=C(CN(C(=O)CNC(=O)c1ccco1)c1ccccc1F)NC1CCCCC1	/	5	/	/	-2.4
O=C(NCc1ccco1)C1CCN(S(=O)(=O)c2cccc3cccnc23)CC1	7	-2	-6%	1	-1.9	Arbovirus anti repeat=1
Cn1cc(/C=C/C(=O)N2CCCC(C(=O)c3cccc(C(F)(F)F)c3)C2)cn1 (stereo not given)	/	-4	-4%	-2	-1.0
Cc1nn(C)c(Cl)c1CN1CCC(n2nccc2NC(=O)C2CCCC2)CC1	/	0	/	/	-0.5
CN(Cc1cccs1)C(=O)CSc1nc2ccccc2[nH]1	/	-3	-3%	14	-3.7
O=C(Nc1ccc2c(c1)OCO2)C1CCCN1C(=O)OCc1ccccc1 (stereo not given)	-37	7	1%	-1	3.5	Arbovirus anti repeat=-10
CC(=O)N(/N=C1/C(=O)Nc2ccccc21)c1ccccc1	/	5	/	/	0.8
C=CCn1c(=O)c2ccc(C(=O)NCc3ccccc3)cc2n(Cc2ccc(C)cc2)c1=O	-25	5	/	2	-0.2
Cc1ccc(NC(=O)c2ccc(S(=O)(=O)NCC3CCCO3)cc2)cc1C (stereo not given)	/	65	55%	-9	-0.4
COC(=O)N/N=C/c1ccccc1OCCOc1ccc(OC)cc1	/	-9	0%	/	1.1
Later entries:
SMILES	YopH inh	Mtb betalactam	Mtb H37Rv	Arbovirus anti	RecA splice inh	others
CCn1c(N2CCN(CC(=O)c3c(C)n(C)c4ccc(OC)cc34)CC2)nc2c1c(=O)[nH]c(=O)n2C	/	-5	2%	/	1.1
COc1ccc(C(CN(C)C)C2(O)CCCCC2)cc1 (stereo not given)	/	-6	-7%	/	-1.9
CC(O)C(=O)NCCOCCOCCNC(=O)C(C)O (stereo not given)	-16	-13	2%	2	3.1
CCOC(=O)CSc1nn(-c2ccccc2)c(=S)s1	/	-6	75%	-7	5.0
COc1cc(NC(=O)C2=C(N3CCOCC3)/C(=C\c3ccc(Br)cc3)CC2)cc(OC)c1OC	0	0	8%	18	-2.5
CCC(=O)Nc1cccc(C2=NOC3(C2)C[C@@H](C(N)=O)N(C(=O)CC)C3)c1 (stereo not given in full)	/	-15	-3%	/	0.2
CCOc1ccccc1NC(=O)CCNS(=O)(=O)c1cccc2nsnc12	/	1	/	/	-0.7
COc1cc(NC(=O)c2ccc(F)cc2)c(OC)cc1Cl	-25	4	7%	-3	14
CCOC(=O)N1CCC(=NNC(=O)COc2cccc(C)c2)CC1	-9	-1	3%	-5	1.9
O=C1NCCCC1C(=O)Nc1ccccc1C(F)(F)F (stereo not given)	17	3	3%	-2	0.9

Among those listed so far, ten have an NH in an aromatic ring.
SMILES	YopH inh	Mtb betalactam	Mtb H37Rv	Arbovirus anti	RecA splice inh	others
CCCn1c(=S)[nH]c2sc3c(c2c1=O)CCCC3	/	2	/	/	-1.2
Cc1ccc2nc(C3CCN(C(=O)c4ccco4)CC3)[nH]c2c1	-41	-1	-2%	0	2.3
N=c1c2cn[nH]c2nc(SCC(=O)c2ccc(Br)cc2)n1-c1ccc(Br)cc1	/	1	-6%	-2	/
CCCn1c(=S)[nH]c2cc(C(=O)N3CCCC(C(=O)OCC)C3)ccc2c1=O (stereo not given)	-26	-12	-6%	12	1.7
O=C(NC(C(=O)N/N=C/c1ccccc1)c1n[nH]c(=O)c2ccccc12)c1ccccc1 (stereo not given)	-30	-11	/	-3	5.4
Cc1ccc(N2CC(C(=O)N3CCC(c4nc5ccccc5[nH]4)CC3)CC2=O)cc1C (stereo not given)	/	0	/	/	-0.6
COc1ccc2[nH]c(=O)c(CN(CCc3cccc(C)c3)C(C)=O)cc2c1	-9	9	1%	10	-1.4
Cc1cc2n(n1)C(c1c[nH]c3ccccc13)Nc1ccccc1-2 (stereo not given)	-39	88	16%	-28	13
CN(Cc1cccs1)C(=O)CSc1nc2ccccc2[nH]1	/	-3	-3%	14	-3.7
CCn1c(N2CCN(CC(=O)c3c(C)n(C)c4ccc(OC)cc34)CC2)nc2c1c(=O)[nH]c(=O)n2C	/	-5	2%	/	1.1
